RN4220 kill: kills Staphylococcus aureus RN4220 | S. aureus RN4220 growth, OD600, 16 h | inhibition, % (no concentration beside the values) | 330,000 tested, 0.33% active | AID 1259311;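 active means z-score of -3 or lower and OD600 up to 0.18 on both plates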;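 further: plate controls were untreated cells for no effect and reference antibiotic for full effect; stock transfer was 100 nL into about 80 µL; one replicate is shown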
BJeLR viability: BJeLR cell viability loss | 300,000 tested, 0.17% active | AID 1554 | BJeLR (HRASV12) viability, CellTiter-Glo ATP luminescence, 48 h; reference of the scale not given here | inhibition, % (no concentration beside the values);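 active means replicate mean above 50%; inconclusive means above 50% but judged a plate artefact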;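 further: 50 nL library stock added to about 25 µL; numbers are from one replicate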
Mtb hypoxia inh: reduces hypoxia-regulated biosensor signal in M. tuberculosis; M. tuberculosis hypoxia-regulated fluorescent reporter, fluorescence; fluorescence inhibition, % (no concentration beside the values); 300,000 tested, 0.1% active; AID 1159583;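 active means 35 to 45% if threefold the growth effect, above 45% if 1.5-fold the growth effect; inactive means the rest, general growth blockers included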;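 further: wells of about 50 µL received 100 nL stock; 0% = vehicle wells and 100% = reference inhibitor wells; whole bacteria with a GFP reporter of the hypoxia response; strong numbers were not always called active; many hits fall short of the cut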
Sa ugtP lethal: growth inhibition of S. aureus ugtP deletion strain; S. aureus RN4220 ugtP deletion, OD600 growth, 16 h; some inactives read as strong as hits; AID 1259309; 330,000 tested, 0.54% active; growth inhibition, % (no concentration beside the values);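 active means z-score under -3 and OD600 up to 0.15 on both plates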;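 further: plate controls were untreated wells for no effect and antibiotic for full effect; wells of about 80 µL received 100 nL stock; the first replicate is given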
PrP 5UTR inh: inhibition of PrP 5' UTR reporter expression. inhibition, % (concentration not given with the values). AID 488862. cell-based PrP 5' UTR mRNA reporter, plate reader. 340,000 tested, 0.35% active;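 active means every replicate at 50% or more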;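 further: 0 = median of the neutral control wells; tested in H4 reporter cells; numbers are from one replicate; inactives centre near -14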
Autofluor counter: compound fluorescence in toxin protease inhibitor counterscreen. compound autofluorescence counterscreen, microsphere flow cytometry; hits give high values. AID 624483. 360,000 tested, 3.1% active. fluorescence intensity (concentration not given with the values);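 active means at least 3 SD above the mean of all compounds, about 16000 in these data; inconclusive means too few beads counted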;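 further: 100 nL of 1 mM stock went into each well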
Mtb hypoxia inh growth: also measured in Mtb hypoxia inh; calls as there; growth inhibition, %; measured here: M. tuberculosis growth (absorbance);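 0% = vehicle and 100% = reference antibiotic; read after six days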
An asterisk follows results filed as active; ? = inconclusive; nt = not tested or not shown.

Each structure is followed by: RN4220 kill | BJeLR viability | Mtb hypoxia inh | Mtb hypoxia inh growth | Sa ugtP lethal | PrP 5UTR inh | Autofluor counter
Nc1nc(SCc2nc3scc(-c4ccccc4)c3c(=O)[nH]2)n[nH]1
→ 3.5 | 16 | 2 | 4 | -1 | -16 | 11182
CCCc1c(C)nc2ccccc2c1SCCC#N
→ 4.5 | 4 | 19 | 9 | -6 | -9 | 2341
COc1ccc(C2CC(c3cccc(F)c3)=NN2c2ccc(S(N)(=O)=O)cc2)cc1 (stereo not given)
→ -12 | nt | 2 | 9 | -26 | -7 | 3752
O=C(/C=C/c1ccco1)N(Cc1ccccc1)C1CCS(=O)(=O)C1 (stereo not given)
→ 0.2 | 5 | 8 | -5 | 4 | -9 | 3841
O=[n+]1c2c(n([O-])c3c1CCC3)CCCC2
→ 0.5 | -3 | nt | nt | -3 | -26 | 3565
Cc1cc(=O)n2[nH]c(C)cc2n1
→ 1.8 | 7 | -2 | -2 | 2 | 6 | 3329
S=C1NC(c2cccs2)=CC(c2ccc(Br)cc2)N1 (stereo not given)
→ 2.6 | 12 | -7 | -3 | 1 | -3 | 10328
CN(C)c1cccc2c(C#N)ccc(N(C)C)c12
→ 6.7 | -2 | 8 | -1 | 11 | -11 | 3925
CCOC(=O)c1oc2cc(O)cc(O)c2c(=O)c1OCc1ccccc1
→ 2.6 | -13 | nt | nt | -5 | -18 | 5592
CCNC(=S)N/N=C1\C(=O)c2cccc3cccc1c23
→ -2.2 | -12 | nt | nt | -3 | -22 | 2965
Cc1c(C(=O)Nc2ccc(N3CCOCC3)cc2)oc2ccccc12
→ 17 | 2 | 8 | 4 | 2 | -45 | ?
COc1ccc(NC(=O)/C(C#N)=C\c2ccc(N3CCOCC3)o2)cc1
→ -0.8 | 9 | -19 | -2 | -8 | -43 | 6770
O=C(OC1Cn2c(=O)ccc(=O)n2C1)c1ccccc1
→ 5.0 | 5 | 11 | 5 | 4 | -11 | 2140
CCN(CC)C(=O)CN1CCN(c2ncccn2)CC1
→ 4.3 | -7 | 9 | 9 | 8 | -35 | 7899
COc1ccc(/C=C/C(=O)OCc2nc3ccccc3c(=O)[nH]2)c(OC)c1
→ 3.0 | 7 | 14 | 1 | 14 | -17 | 6844
O=c1cc(-c2ccccc2)oc2ccc(Br)cc12
→ 8.9 | nt | 14 | 14 | 10 | -34 | 3863
CCOC(=O)C1=NN(C(=O)c2ccco2)C2(CC2)C1
→ 8.7 | 3 | 5 | 2 | 0 | 2 | 2754
O=C(c1cc2ncc(Br)cn2n1)N1CCCCC1
→ 1.9 | 6 | 25 | 27 | 6 | -20 | 2674
Nc1ccc2cc3ccccc3cc2c1
→ -2.9 | nt | -6 | 12 | -1 | -57 | 7747
COc1ccc(C(=O)C(C)OC(=O)CN2C(=O)c3ccccc3C2=O)cc1 (stereo not given)
→ -2.7 | nt | 8 | 1 | -3 | -6 | 3119
O=C(/C=C/c1ccccc1Cl)OCC(=O)c1ccc[nH]1
→ 8.9 | nt | 5 | -4 | 13 | -27 | 6813
O=C(Nc1ccc(Cl)cc1)C1CCN(C(=O)c2cccs2)CC1
→ 1.1 | -13 | 3 | -1 | 11 | -19 | 6280
CC(=O)c1ccc(NC(=O)C(C)Sc2ccccn2)cc1 (stereo not given)
→ 9.9 | 2 | -20 | -26 | 3 | -49 | 4380
COc1ccc(NC(=O)NC(=O)c2ccccc2)cc1
→ 1.1 | 11 | 6 | 3 | 0 | -75 | 2905
Cc1ccc(F)cc1CNC(=O)c1cc(COc2ccc3ncccc3c2)on1
→ -3.7 | 29 | 7 | 4 | 12 | -33 | 3893
COc1ccc(CCC(=O)Nc2ncc(C)s2)cc1OC
→ -0.5 | -7 | 1 | -3 | 4 | -25 | 4007
O=C(COC(=O)c1ccccn1)NCc1ccc(Cl)cc1Cl
→ 3.4 | nt | -1 | 0 | 4 | -9 | 9588
COc1cc(NC(=O)c2ccco2)c(OC)cc1NC(=O)CCC(=O)Nc1cccc(C)c1C
→ 4.0 | nt | -11 | 5 | -2 | -31 | 9715
COc1ccc(N(C)S(=O)(=O)c2cccc(C(=O)NC3=NCCS3)c2)cc1
→ -7.7 | -11 | 6 | 2 | 0 | -13 | 3171
CCCCN(CC)CCCNC(=O)c1cn(-c2ccc(OC)cc2)c(=O)c2ccccc12
→ -2.9 | -11 | -5 | 5 | 1 | -13 | 3704

Some of these compounds in order of SMILES length, low to high:
Each structure is followed by: RN4220 kill | BJeLR viability | Mtb hypoxia inh | Mtb hypoxia inh growth | Sa ugtP lethal | PrP 5UTR inh | Autofluor counter
O=C(c1cc2ncc(Br)cn2n1)N1CCCCC1
→ 1.9 | 6 | 25 | 27 | 6 | -20 | 2674
CCOC(=O)C1=NN(C(=O)c2ccco2)C2(CC2)C1
→ 8.7 | 3 | 5 | 2 | 0 | 2 | 2754
COc1ccc(C(=O)C(C)OC(=O)CN2C(=O)c3ccccc3C2=O)cc1 (stereo not given)
→ -2.7 | nt | 8 | 1 | -3 | -6 | 3119

Three successive compounds from above, quoted:
Each structure is followed by: RN4220 kill | BJeLR viability | Mtb hypoxia inh | Mtb hypoxia inh growth | Sa ugtP lethal | PrP 5UTR inh | Autofluor counter
O=c1cc(-c2ccccc2)oc2ccc(Br)cc12
→ 8.9 | nt | 14 | 14 | 10 | -34 | 3863
CCOC(=O)C1=NN(C(=O)c2ccco2)C2(CC2)C1
→ 8.7 | 3 | 5 | 2 | 0 | 2 | 2754
O=C(c1cc2ncc(Br)cn2n1)N1CCCCC1
→ 1.9 | 6 | 25 | 27 | 6 | -20 | 2674

The list continues.
Each structure is followed by: RN4220 kill | BJeLR viability | Mtb hypoxia inh | Mtb hypoxia inh growth | Sa ugtP lethal | PrP 5UTR inh | Autofluor counter
CC(=C/C(=O)O)/C=C/c1ccc(Cl)o1
→ 3.1 | -2 | nt | nt | 3 | -20 | 4459
Cc1cc(C(=O)Nc2nnc(C(F)(F)F)s2)no1
→ 32 | 15 | 4 | 3 | 22 | -29 | 22963*
C=CCN1CCN(c2ccncc2S(=O)(=O)N2CCOCC2)CC1
→ 0.8 | 0 | nt | nt | 0 | -1 | 4735
CC(=O)Nc1sc(N/N=C\c2ccccc2Cl)nc1-c1cccs1
→ nt | 2 | nt | nt | nt | -17 | 10703
Cc1nn(-c2ccc(F)cc2)c2nc(N)c(C#N)c(-c3ccc(O)c(O)c3)c12
→ -1.9 | -5 | 11 | -2 | 7 | -13 | 4717
Cc1ccc(NC(=O)c2cc(-c3ccc(C)o3)nc3ccccc23)cc1
→ -3.6 | 1 | 3 | -1 | -12 | 0 | 9172
COc1ccccc1NC(=O)c1cc(S(=O)(=O)NCc2ccccc2)ccc1F
→ 4.4 | 9 | -1 | 11 | 1 | -13 | 5452
C=CCc1c(C)nc(SCCC)[nH]c1=O
→ 6.5 | -5 | -1 | 7 | 8 | -10 | 6615
Cc1nc(SCC(=O)NCc2ccccc2)c2c(=O)n(C)c(=O)n(C)c2n1
→ -6.5 | -2 | -1 | 9 | -2 | -16 | 5491
CCc1ccc(-c2cc(C)no2)cc1S(=O)(=O)N1CCC(C)CC1
→ 2.8 | 7 | 8 | 4 | 7 | -17 | 4579
CCC1CCCCN1CCCNC(=O)CNC(=O)c1nn(-c2ccc(OC)cc2)c(=O)c2ccccc12 (stereo not given)
→ 1.9 | 11 | -3 | 0 | 11 | -7 | 4535
COc1ccc(/C=N/NC(=O)C(O)(c2ccccc2)c2ccccc2)cc1OC
→ nt | 8 | nt | nt | nt | -6 | 2451
COc1ccccc1/C=C/C(=O)Nc1cccnc1Cl
→ 1.4 | -1 | 20 | 15 | 0 | 4 | 3263
CCOC(=O)c1sc(NC(=O)C2CC(=O)N(c3ccccc3OC)C2)nc1C (stereo not given)
→ 2.7 | nt | 4 | 5 | 2 | 6 | 6599
COc1cccc(NC(=O)NC2(C(=O)N3CCC(O)CC3)CCCCC2)c1
→ 1.5 | -11 | 2 | -9 | 0 | -5 | 3839
CC(C)[C@H]1COCCS(=O)(=O)N1Cc1ccccc1-c1ccc(C(C)(C)C)cc1
→ -1.5 | nt | 1 | 13 | 7 | -13 | 3388
C=CCc1cccc(/C=N/NC(=O)c2ccccc2OC)c1O
→ nt | -16 | nt | nt | nt | -22 | 2511
CCOC(=O)C1Nc2ccc(Br)cc2C2C=CCC12 (stereo not given)
→ 3.8 | -7 | 1 | -11 | -3 | -24 | 3397
Cc1ccc(NC(=O)COc2ccc(C3SCCS3)cc2)cc1
→ 3.0 | -7 | 7 | 7 | -5 | -38 | 1989
COc1ccccc1NS(=O)(=O)c1ccc(O)c(C(=O)OCC(=O)N2CCc3ccccc32)c1
→ 3.7 | 4 | 15 | 11 | -2 | -19 | 4243
Cc1ccc2[nH]c(SCC(=O)N3CCOCC3)nc2c1C
→ 2.4 | -1 | 9 | 12 | 2 | -63 | 2441
CC(=O)COc1ccc2c(C)c(-c3ccccc3)c(=O)oc2c1
→ 5.2 | 2 | 8 | -1 | 6 | -9 | 3445
COc1ccccc1NC(=O)C1=C(C)Nc2nc3ccccc3n2C1c1cccs1 (stereo not given)
→ 7.7 | 29 | 5 | 2 | -21 | -48 | 10772
C=CCn1c(SCC(=O)Nc2cc(C)on2)nnc1C1COc2ccccc2O1 (stereo not given)
→ 4.0 | -11 | 6 | -4 | -1 | -13 | 3869
CN(C)CCNC(=O)/C(=C/c1cccc([N+](=O)[O-])c1)NC(=O)c1ccccc1
→ -0.2 | -5 | -3 | 6 | 1 | -7 | 2564
O=C(N=C1SCC(=O)N1c1ccccc1)c1ccco1
→ 3.5 | nt | 7 | 1 | 1 | -29 | 2887
O=C(O)c1cc(-c2ccccc2)nn1CC1CC(c2cccnc2)=NO1 (stereo not given)
→ 5.7 | 0 | 20 | 10 | 1 | -18 | 4166
CCOC(=O)C1=C(c2ccccc2)NC(SCC)=C(C#N)C1c1cccnc1 (stereo not given)
→ 2.0 | 4 | nt | nt | 6 | 0 | 2173
O=C(c1cccc([N+](=O)[O-])c1)c1ccccn1
→ 4.1 | 8 | 6 | 17 | 15 | -23 | 4754
COc1ccc(CCNC(=O)C2CCCN(S(=O)(=O)c3ccc(OC)cc3)C2)cc1 (stereo not given)
→ -0.4 | 1 | 15 | 12 | 9 | -13 | 5695
CCC(=O)N1CCc2cc(S(=O)(=O)NCCC(=O)N3CCc4ccccc4C3)ccc21
→ 5.0 | -6 | 5 | 8 | 1 | -19 | 10223
COC(=O)C1N[C@@H]([C@@H](NC(=O)COc2ccccc2)C(=O)NCc2ccsc2)SC1(C)C (stereo not given in full)
→ nt | -7 | nt | nt | nt | -11 | 3772
Cc1ccc2[nH]c(C)c(CCNCc3ccco3)c2c1
→ -0.5 | -4 | 3 | 2 | 3 | -31 | nt
CCOC(=O)/C(C#N)=N/Nc1c(S(=O)(=O)Cc2ccco2)csc1C(=O)OC
→ nt | -1 | nt | nt | nt | -30 | 5960
CC(=O)c1cccc(N(CC(=O)NC2CCCC2)C(=O)c2csnn2)c1
→ -0.6 | -11 | 0 | 6 | 9 | -13 | 3859
Clc1cccc(OCCN2CCCC2)c1
→ 0.9 | -4 | 12 | -3 | 7 | -21 | 2963
COCC1CCCN(C(=O)c2ccc3nc(Cc4cccc(Cl)c4)oc3c2)C1 (stereo not given)
→ 5.0 | -11 | 9 | 8 | 10 | -72 | 6151
CC(C)(C)CN1CCNC(=O)C1CC(=O)NCCc1ccccc1C(F)(F)F (stereo not given)
→ 0.2 | 1 | 14 | 7 | -3 | -5 | 3552
CC(C)c1ccc(C2NC(=S)NC3=C2C(=O)CCC3)cc1 (stereo not given)
→ 13 | -7 | 2 | -4 | 15 | -3 | 9873
CC(C)C[C@H](NC(=O)C1CCC(CNC(=O)[C@@H]2CCCN2C(=O)OC(C)(C)C)CC1)C(=O)O (stereo not given in full)
→ 4.1 | -1 | 3 | 3 | 6 | -40 | 3371
O=C(O)C1CC=CCC1C(=O)c1ccccc1 (stereo not given)
→ -1.0 | -6 | 1 | 6 | -5 | 4 | 5741
FC(F)Oc1cccc2cccnc12
→ 0.4 | 0 | 2 | -5 | 4 | -5 | 7983
CC(C)(C)c1cc(CP(=O)(c2ccccc2)c2ccccc2)cc(C(C)(C)C)c1O
→ 8.5 | 5 | 4 | -3 | -25 | -11 | 3994
CC1CCN(c2ccc3c(c2)S(=O)(=O)c2cccc(C(=O)NC4CC4)c2C3=O)CC1
→ 1.8 | nt | 0 | 8 | 6 | 3 | 3947
CN1CCN(c2ccc(NC(=O)c3cc(S(N)(=O)=O)ccc3N3CCOCC3)cc2)CC1
→ 0.9 | nt | 3 | -6 | 6 | -5 | 6024

Compounds as they come; any-hit rate near 4.1%.
